Vaccinia Venus: inhibitors of vaccinia virus (Venus reporter) | AID 720580 | Potency, µM (series often up to 36.5 µM), for inactives: top-dose activity change, negative = inhibition, most hits filed as inhibitors | hit rate 0.46% among 330,000 | Vaccinia virus Venus reporter expression, fluorescence; active means well fitted inhibition curve with a large enough effect; inconclusive means small, poorly fitted or top-dose-only effect; inactive means no such curve, though single readings can be large or run the other way; tested in A549 cells; note: nearly all actives have a fitted effect of over 30% in size; inactives centre near -10
VACV mCherry inh: inhibitors of vaccinia virus infection (mCherry reporter signal) | Vaccinia virus mCherry reporter infection, fluorescence; about a quarter of the inactives have no number | Potency, µM (highest dose often 36.5 µM), without a hit: at the top dose activity change, negative = inhibition, hits mostly inhibitors | hit rate 0.63% among 310,000 | AID 720579; active = well fitted inhibition curve with a large enough effect; inconclusive = small, poorly fitted or top-dose-only effect; inactive = no such curve, though single readings can be large or run the other way; tested in A549 cells; note: nearly all actives have a fitted effect of over 35% in size; inactives centre near -10
* hit, by the source's call; i = inactive; ? = inconclusive; / = not tested or not shown; & = joins results of further samples; [ ] = another dose, or the depositor's remark. % is set by controls: 0 for no effect and ±100 for the full control effect; potency is the fitted concentration of half-maximal effect.

SMILES | Vaccinia Venus | VACV mCherry inh
Cn1c(SCC(=O)N2c3ccccc3CCc3ccccc32)nnc1-c1cc2ccccc2cc1O | ? | -13.0%
CCOC(=O)CSc1nc(NC#N)nc(N(CC)CC)n1 | -5.0% | -1.3%
Cc1cccc(NC(=O)c2cccc(Cn3cc(Br)c([N+](=O)[O-])n3)c2)c1C | ? | /
Cn1cccc1CC(=O)N/N=C/c1ccco1 | -6.2% | i
C=CCn1c(COc2cccc3ccc(C)nc23)nnc1SCC(N)=O | -15.6% | -14.5%
COc1ccc(C(=O)NCCS(=O)(=O)NCCc2ccccc2)cc1 | -17.8% | i
O=C(CCCc1c[nH]c2ccccc12)NCC1COc2ccccc2O1 (stereo not given) | -5.8% | -14.1%
O=[N+]([O-])c1cccc(S(=O)(=O)c2ccc(N3CCCCC3)c([N+](=O)[O-])c2)c1 | -16.2% | i
Cn1c(CNC(=O)OC(C)(C)C)nnc1SCC(=O)N1CCOCC1 | -3.4% | i
Cn1c(SCC(=O)Nc2sccc2C(N)=O)nnc1-c1ccncc1 | -8.3% | -11.1%

Compounds shown so far that have sulfur, in the order listed:
SMILES | Vaccinia Venus | VACV mCherry inh
Cn1c(SCC(=O)N2c3ccccc3CCc3ccccc32)nnc1-c1cc2ccccc2cc1O | ? | -13.0%
CCOC(=O)CSc1nc(NC#N)nc(N(CC)CC)n1 | -5.0% | -1.3%
C=CCn1c(COc2cccc3ccc(C)nc23)nnc1SCC(N)=O | -15.6% | -14.5%
COc1ccc(C(=O)NCCS(=O)(=O)NCCc2ccccc2)cc1 | -17.8% | i
O=[N+]([O-])c1cccc(S(=O)(=O)c2ccc(N3CCCCC3)c([N+](=O)[O-])c2)c1 | -16.2% | i
Cn1c(CNC(=O)OC(C)(C)C)nnc1SCC(=O)N1CCOCC1 | -3.4% | i
Cn1c(SCC(=O)Nc2sccc2C(N)=O)nnc1-c1ccncc1 | -8.3% | -11.1%

New compounds follow:
SMILES | Vaccinia Venus | VACV mCherry inh
COc1ccc(-c2csc(NC(=S)NC(=O)/C=C/c3ccc(C(C)C)cc3)n2)cc1OC | 0.0% | -11.4%
CCC(C)NC(=O)c1ccc(N2CCC3(CC2)OCCO3)c([N+](=O)[O-])c1 (stereo not given) | -12.6% | -3.3%
COc1ccccc1C1(O)C(=O)Nc2ccc(C)cc21 (stereo not given) | -11.1% | -13.5%
COc1ccccc1CCNC(=O)Cc1c(C)c2c(cc(C)c3c(C)coc32)oc1=O | -3.8% | -10.4%
CCOc1ccc(C(=O)NCCn2cc(SCC(=O)Nc3cc(C)on3)c3ccccc32)cc1 | -19.6% | -29.9%
CC1CN(C(=O)COC(=O)c2ccc(Cl)nc2)CC(C)O1 (stereo not given) | -6.1% | -2.7%
Cc1ccc(NC(=O)C2CCC(CNS(=O)(=O)c3cccc4nsnc34)CC2)c(C)c1 (stereo not given) | -1.3% | -10.3%
COc1cccc(C2C(C(=O)c3ccc(C)o3)=C(O)C(=O)N2CCN2CCOCC2)c1 (stereo not given) | -9.4% | -18.8%
NC(=O)c1nn(-c2ccccc2)nc1NC(=O)CN1CCCCC1 | -22.9% | -6.4%
CC1Cc2ccccc2N1C(=O)c1ccc2c(c1)OCO2 (stereo not given) | -16.0% | -19.0%
Cc1ccc(CNC(=O)c2cc3c(s2)-c2ccc(Cl)cc2SC3)cc1 | -11.0% | -6.2%
O=C(NNS(=O)(=O)c1ccccc1C(F)(F)F)c1cccc(S(=O)(=O)Nc2ccccc2Cl)c1 | -4.7% | i
Cc1ccccc1NC(=O)CC(NCc1cccnc1)C(=O)O (stereo not given) | -4.2% | -6.2%
CC1CN(CC(O)COc2ccccc2C(C)(C)C)CC(C)O1 (stereo not given) | -18.9% | -21.4%
N/C(COc1ncn(-c2ccccc2)n1)=N\S(=O)(=O)c1ccccc1 | -5.5% | i
CCN1c2ccccc2NC2N=C(OC)C(c3ccccc3)C21 (stereo not given) | ? | ?
COC(=O)c1ccccc1NC(=O)N1CCC(n2c(C)nc3cccnc32)CC1 | -8.8% | -14.5%
COc1ccc(NC(=O)c2cn(C)c(=O)c3cc(OC)c(OC)cc23)cc1OC | -4.0% | i
O=C(NCCCn1ccnc1)c1nc(Cn2ccc([N+](=O)[O-])n2)no1 | -5.6% | -5.5%
O=C(NCCn1cc(SCc2ccc(Cl)cc2)c2ccccc21)c1cccs1 | -6.6% | -13.0%
FC(F)(F)c1ccccc1Cc1c(-c2ccccc2)nc2ccc(Cl)cn12 | -9.4% | 1.2%
COc1ccc(NC(=O)CN2CCC(C(=O)c3ccc(F)cc3)CC2)c(OC)c1 | -10.0% | 7.8%
COc1ccc(/C=C/C(=O)Nc2cccc(N3CCOCC3)c2)cc1OC | -8.5% | -4.5%
O=C(CCc1nc2ccccc2c(=O)[nH]1)Nc1cc(Cl)ccc1N1CCCC1 | -18.6% | -13.8%
COc1ccc2c(c1)-c1nc(/N=C/c3cccc(OC)c3O)sc1CC2 | -22.5% | -7.6%
CCNC(=O)c1ccc(NS(=O)(=O)c2ccc3[nH]c(=O)[nH]c3c2)cc1 | 0.3% | -13.7%
NC(=O)c1nsc(C(=O)N(c2ccccc2F)C(C(=O)NCc2ccc(F)cc2)c2ccc(O)cc2)c1N (stereo not given) | -12.4% | -29.4%
Cc1ccc(C)c(N2CCN(CC3CCCCC3)CC2)c1 | -3.5% | i
CCC(C)N1C(=O)CCC1C(=O)NCc1ccc2c(c1)OCO2 (stereo not given) | -0.8% | i
Cn1c(N)c(C(=O)COC(=O)c2cc(C3CC3)nc3ccccc23)c(=O)n(Cc2ccccc2)c1=O | -17.9% | -9.3%

The closing four entries of the section above lead into the next:
SMILES | Vaccinia Venus | VACV mCherry inh
NC(=O)c1nsc(C(=O)N(c2ccccc2F)C(C(=O)NCc2ccc(F)cc2)c2ccc(O)cc2)c1N (stereo not given) | -12.4% | -29.4%
Cc1ccc(C)c(N2CCN(CC3CCCCC3)CC2)c1 | -3.5% | i
CCC(C)N1C(=O)CCC1C(=O)NCc1ccc2c(c1)OCO2 (stereo not given) | -0.8% | i
Cn1c(N)c(C(=O)COC(=O)c2cc(C3CC3)nc3ccccc23)c(=O)n(Cc2ccccc2)c1=O | -17.9% | -9.3%
CC1(C)CC(CCN)(Cc2ccccc2Cl)CCO1 (stereo not given) | -4.7% | i
CC(C)(C)c1ccc(-c2nc(S(=O)(=O)c3ccccc3)c(N3CCOCC3)o2)cc1 | 10.2% | -7.2%
CC1CCc2sc(C(=O)N/N=C/c3ccc(O)cc3)cc2C1 (stereo not given) | -18.3% | ?
N#Cc1ccc(C(C(=O)NC2CCCCC2)n2c(=O)c(-c3ccccc3)nc3ccccc32)cc1 (stereo not given) | -1.6% | 7.5%
CCOc1nc(-c2ccccc2Cl)nc2ccccc12 | 4.1% | -4.6%
CC(OC(=O)C1CC1)C(=O)Nc1ccc([N+](=O)[O-])cc1Cl (stereo not given) | -5.3% | -1.1%
COc1ccccc1C(=O)N1CCC(c2c[nH]c3ccccc23)(c2c[nH]c3ccccc23)CC1 | -15.8% | ?
Cc1ccc(S(=O)(=O)NC(c2ccccc2)C(C)C(=O)n2nc(C)cc2C)cc1 (stereo not given) | -14.5% | /
COc1cc(NC(=O)CSc2nc(-c3ccco3)cc(C(F)(F)F)n2)cc(OC)c1OC | -14.1%[7.34 µM] | -7.0%[7.34 µM]
CCn1c(=O)c2ccccc2n(CC(=O)NCCC2=CCCCC2)c1=O | -4.8% | -12.7%
Cn1c(=O)c([N+](=O)[O-])c(NCCCn2ccnc2)c2ccccc21 | -4.9% | i
COc1cc(C(=O)Nc2cccc(-c3nnc(-c4ccco4)o3)c2)ccc1OC(C)=O | -17.1% | ?
CCOc1ccc(N2C(=O)C3C(C2=O)C3(c2ccccc2)c2ccccc2)cc1 (stereo not given) | -13.6% | -4.8%
Nc1c(Br)cc(Br)cc1CNC1CCC(O)CC1 (stereo not given) | -15.6%&-9.0%&-10.1% | -12.7%&-13.5%&-14.6%
O=C(NCc1ccco1)C(c1ccco1)N(Cc1cccs1)C(=O)Cn1nnc2ccccc21 (stereo not given) | -14.5% | -18.4%
CC(C)CNC(=O)C1CCCN(S(=O)(=O)c2ccc(-n3cnnn3)cc2)C1 (stereo not given) | -0.4% | i
C/C(=N\NC(=O)C(O)(c1ccccc1)c1ccccc1)c1ccc(C)o1 | -18.5% | -23.7%
Cc1ccc(S(=O)(=O)N2CCN(C(=O)C3CCN(C(=O)c4ccccc4C)CC3)CC2)cc1C | -25.5% | ?
O=C(c1ccc2c(c1)OCO2)N1CCN(c2ccc(Cl)cc2)CC1 | -3.0% | -20.5%
COC(=O)[C@@]12C[C@@H](CC(=O)NCCCN3CCCC3=O)C(=O)N(Cc3cccc4ccccc34)C1=CCC(C)(C)C2 | -16.0% | i
CCc1ccc(NC(=O)CSc2nnc(-c3cc4occc4n3C)n2-c2ccccc2C)cc1 | -12.7% | -17.1%
Cc1ccc(C)c(C(C)NC(=O)c2ccccc2Br)c1 (stereo not given) | -8.4% | -3.7%
Cc1ccccc1NC(=S)N1CCN(c2ccccc2)CC1 | -11.3% | -5.8%
Clc1ccc(N2CCNCC2)nn1 | -8.3% | -15.7%
COc1ccccc1OCCC(=O)OCCN1C(=O)c2ccccc2C1=O | 2.3% | -8.3%
COc1cc(/C=N/Nc2cc(C)nc(N)n2)ccc1O | -3.8% | -15.7%
C=C(C)C(=O)Nc1cccc(C2=NOC3(C2)C[C@@H](C(N)=O)N(C(=O)C2(C)CC2)C3)c1 (stereo not given in full) | -14.2% | ?
COc1cc(CNc2ccc3[nH]c(=O)[nH]c3c2)cc(Cl)c1OCC(=O)NC(C)(C)C | -19.7% | -19.5%
Nn1cnnc1N/N=C/c1cccc(Cl)c1Cl | ? | ?
COc1cccc(NC(=O)CCCNC(=O)Cn2cnc3sc(C)c(C)c3c2=O)c1 | -21.3% | i
CCCCNC(=O)C1(O)c2ccccc2NC(=O)N1c1ccc(Cl)cc1 (stereo not given) | 2.3% | ?
O=C(Nc1cccc(F)c1)[C@@H](c1ccccc1)N1Cc2ccccc2C1=O | -1.5% | -0.5%
CN1C/C(=C/c2ccsc2)C(=O)/C(=C/c2ccsc2)C1 | ? | ?
O=C(O)c1ccc(COc2ccc([N+](=O)[O-])cc2)o1 | -2.9% | -18.8%
CC(Sc1nnc(CNC(=O)c2ccccc2F)n1C)C(=O)Nc1nccs1 (stereo not given) | -8.4% | i
O=c1[nH]c(=O)n(-c2ccccc2F)c(O)c1C=NCCC1=CCCCC1 | -8.3% | -10.2%
O=c1cc(CO)oc(CN2CCCC2)c1O | 0.0% | i
CN(C)Cc1c(C(=O)Nc2ccccc2)[nH]c2ccccc12 | 2.0% | i
CCOc1ccc2c(c1)[N+](C)(C)C(C)(C)C=C2C | -19.5% | i
Cc1ccc(C(=O)NCC(=O)OCc2cc(=O)n3c(C)csc3n2)cc1 | -2.1% | 2.9%
CCCN1CC(=O)N2C(c3ccccc3)c3[nH]c4ccccc4c3C[C@H]2C1=O (stereo not given in full) | -18.4% | i
CCCCCC(=O)Nc1ccc(S(=O)(=O)Nc2nccnc2OC)cc1 | -4.9% | -10.6%
COc1ccc(OC)c(NC(=O)C(CCSC)NS(=O)(=O)c2cccs2)c1 (stereo not given) | -4.3%&-5.3% | 6.8%&-8.8%
CN1CCC(=NNC(=O)C(=O)Nc2cccc(Br)c2)CC1 | -2.5% | -1.3%
Cc1ccc2nc(-c3ccccc3)cc(C(=O)N(C)CC(=O)Nc3ccccc3Br)c2c1 | -5.8% | i
CC1CN(Cc2ccccc2)c2ccccc2NC1=S (stereo not given) | -11.5% | i
CCn1c(C(=O)NCc2ccc(F)cc2)cc2oc3ccccc3c21 | 10.1% | -16.3%
COc1ccc(-c2nnc(SCC(=O)c3cc(C)n(Cc4cccs4)c3C)o2)cc1 | -3.5% | -8.7%
C/C=C(/CCC1NCCc2c1[nH]c1ccccc21)[Si](C)(C)C (stereo not given) | ? | -27.8%
Cc1cc(NC(=O)c2cccc(S(=O)(=O)N3CCCCC3)c2)no1 | -13.9% | -0.9%
The list continues.
SMILES | Vaccinia Venus | VACV mCherry inh
Cc1ccc(S(=O)(=O)N2C(=O)C(c3ccccc3)SC2=Nc2ccccc2)cc1 (stereo not given) | -6.8% | /
COc1ccc2oc(C(=O)OCC(=O)N3CCC(C)CC3)c(C)c2c1 | ? | i
COc1ccc(S(=O)(=O)N(C)C[C@H]2Oc3ccc(NC(=O)Nc4ccc5c(c4)OCO5)cc3CC(=O)N([C@@H](C)CO)C[C@@H]2C)cc1 | -2.4% | i
CCN(/C=N/S(=O)(=O)c1ccc(Cl)cc1)CC | -0.5% | -6.4%
Cc1cccc(C(=O)N2c3nc(-c4ccco4)nn3C3(CCCCC3)[C@@H]3CCCC[C@@H]32)c1 | -18.1% | -11.2%
CCN1CCn2c3c(c4cc(C)ccc42)CCCC31 (stereo not given) | -27.3% | /
O=C(c1ccc2c(c1)N(Cc1ccc(F)cc1)C(=O)c1ccccc1S2=O)N1CCOCC1 (stereo not given) | -4.0% | 3.2%
CCCCNC(=O)CSc1nnc(-c2ccc(S(=O)(=O)N3CCCC3)cc2)n1C | -5.8% | i
CCOCCCNC(=O)c1ccc2c(c1)N(CC)C(=O)c1ccccc1S2=O (stereo not given) | -21.1% | i
Cc1cccc(OCCCn2c(CCNC(=O)C3CCCCC3)nc3ccccc32)c1 | -16.5%[7.34 µM] | i[7.34 µM]
CCCCNC(=O)N1CCCC(C(=O)c2cc(C)c(OC)c(C)c2)C1 (stereo not given) | -22.5% | ?

Screens (PubChem)
